2A Renilla – Primary qHTS Assay for Foot and Mouth Disease Virus Antivirals against NCGC Sytravon and CBC Compound Libraries: Renilla Luciferase Signal; HEK cells with a luciferase reporter of 2A StopGo recoding; Potency, µM (series often up to 57.5 µM), for the others: top-dose signal change, negative = less light; 120,000 tested, 0.32% active; active means well fitted falling curve with a large enough effect; inconclusive means small, poorly fitted or top-dose-only effect; inactive means no such curve, though single readings can be large or run the other way; note: nearly all actives have a fitted effect of over 55% in size; overnight with compound
2A firefly – Primary qHTS Assay for Foot and Mouth Disease Virus Antivirals against NCGC Sytravon and CBC Compound Libraries: Firefly Luciferase Signal. Potency, µM (top dose mostly 57.5 µM), without a hit: top-dose signal change, negative = less light. HEK cells with a luciferase reporter of 2A StopGo recoding. 120,000 tested, 0.23% active; active = well fitted falling curve with a large enough effect; inconclusive = small, poorly fitted or top-dose-only effect; inactive = no such curve, though single readings can be large or run the other way; note: nearly all actives have a fitted effect of over 60% in size; overnight with compound
* = called active by the depositor; ? = inconclusive; & = joins results of further samples; [ ] = another dose, or the depositor's remark. % is set by controls: 0 for no effect and ±100 for the full control effect; potency is the fitted concentration of half-maximal effect. Some of the compounds tested. The share of hits here may be higher or lower than overall.

SMILES	2A Renilla	2A firefly
CCOc1ccc(NC(=O)C(C)n2cnc3c2c(=O)n(C)c(=O)n3C)cc1 (stereo not given)	-4%	17%
CN(Cc1ccccc1)c1nc2c(c(=O)n(C)c(=O)n2C)n1Cc1ccc(F)cc1	-13%	-19%
CCOC(=O)c1c(NC(=O)C2CCCO2)sc(C(N)=O)c1C (stereo not given)	-4%	1%
CN(Cc1ccc(Br)cc1)C(=O)Cn1nnn(-c2cccs2)c1=O	?	-2%
Cc1ccc(-c2noc(CN(C)C(=O)COc3ccc(Cl)cc3Cl)n2)cc1	7%	12%
CN(C)c1cccc(C(=O)NNc2c(Cl)cc(Cl)cc2Cl)c1	-5%	65%[activator]
N#Cc1cccc(NS(N)(=O)=O)c1	26%	40%[activator]
Cc1ccc(-c2nn(CC(=O)Nc3cccc(C(F)(F)F)c3)c(=O)c3ccccc23)cc1	-5%&-4%	-3%&-13%
O=C(CSc1nc(=O)[nH]c2c1CCC2)Nc1cccc(C(F)(F)F)c1	-11%	-29%
CC(CNC(=O)c1ccc2c(c1)nc1n2CCCCC1)c1ccccc1 (stereo not given)	24%	97%[activator]

Brought forward from above: 2 entries, followed by the next part.
SMILES	2A Renilla	2A firefly
O=C(CSc1nc(=O)[nH]c2c1CCC2)Nc1cccc(C(F)(F)F)c1	-11%	-29%
CC(CNC(=O)c1ccc2c(c1)nc1n2CCCCC1)c1ccccc1 (stereo not given)	24%	97%[activator]
Cc1ccc(Nc2nc3ccccc3c3nncn23)c(Cl)c1	-14%	4%
COc1cccc(C(=O)CN2CCN(S(=O)(=O)c3ccc(Cl)cc3)CC2)c1	7%	-2%
Cc1cc(C(=O)CSc2nnc(CN3CCCC3)n2-c2ccccc2)c(C)n1C1CC1	-2%	-1%
COC(=O)COc1ccc2c(=O)c(-c3ccccc3)c(C(F)(F)F)oc2c1	-10%	-2%
CCCCCCCCN1C(=O)N2Cc3ccc(C)cc3C2CS1(=O)=O (stereo not given)	0%	-7%
Cc1ccc(C)c(N2CCN(C(=O)c3nn(C)c4c3CS(=O)(=O)c3ccccc3-4)CC2)c1	-20%	?
O=C(CCNS(=O)(=O)c1ccc2c(c1)CCN2C(=O)C1CC1)Nc1ccc(F)cc1F	46%[activator]	3%
COc1ccc(-c2nc3ccccc3o2)cc1NC(=O)c1ccc(-c2ccc(C)c(Cl)c2)o1	2%	48%[activator]
CCOc1ccc(C(=O)c2cnc3ccc(Cl)cc3c2S(=O)(=O)c2ccc(C)cc2)cc1	-6%	-5%
CN(Cc1cccc(Cl)c1Cl)C(=O)c1ccccc1NS(C)(=O)=O	12%	-5%
O=C(CCl)N(Cc1ccsc1)C1CC1	-1%	20%
CCCCOc1ccc2c(C)c(C)c(=O)oc2c1	23%	1%
CCN1CCCC1CNC(=O)CC(C)C (stereo not given)	8%	23%
O=C(Nc1ccc(-n2cccn2)c(F)c1)C1CCN(C(=O)c2ccco2)CC1	-19%	-7%
Cc1ccc2nc(-c3ccc(Cl)cc3)cc(C(=O)NCc3ccncc3)c2c1	17%	88%[activator]
O=C(Cc1ccccc1)NC1CC(=O)N(c2ccc3c(c2)OCCO3)C1 (stereo not given)	-7%	-19%
CC1CCCC(C)N1 (stereo not given)	9%	-4%
Cc1cccc(CCNC(=O)c2cc3ccccn3n2)c1	-9%	63%[activator]
COc1ccc(CC(C(=O)Nc2ccc(F)cc2)c2nn[nH]n2)cc1 (stereo not given)	-4%	1%
Cc1ccccc1NC(=O)C(C)N1CCC(C(=O)NCc2ccccc2)CC1 (stereo not given)	-6%	8%

Sorted by molar mass (rising): 5 of the compounds above
SMILES	2A Renilla	2A firefly
CC1CCCC(C)N1 (stereo not given)	9%	-4%
CCN1CCCC1CNC(=O)CC(C)C (stereo not given)	8%	23%
CCCCOc1ccc2c(C)c(C)c(=O)oc2c1	23%	1%
O=C(Cc1ccccc1)NC1CC(=O)N(c2ccc3c(c2)OCCO3)C1 (stereo not given)	-7%	-19%
Cc1ccc2nc(-c3ccc(Cl)cc3)cc(C(=O)NCc3ccncc3)c2c1	17%	88%[activator]

Additional entries:
SMILES	2A Renilla	2A firefly
COc1ccc(C(=O)COC(=O)/C=C/c2ccc3c(c2)OCO3)cc1	-8%[1.06 µM]	32%
COc1ccc(C(C)=O)cc1COC(=O)C1CC2CCCC(C1)C2=O (stereo not given)	9%	2%
N#CCC(=O)Nc1ccc(C(=O)OCc2ccc(Cl)c(Cl)c2)cc1	-11%	-10%
O=C(CCN1C(=O)c2ccccc2S1(=O)=O)Nc1cccc(C(=O)O)c1	1%	17%
COc1ccc(-c2c(C#N)c(SCC(=O)Nc3cccc(Cl)c3)nc(C)c2C(=O)Nc2ccccc2)cc1OC	-5%	-9%
CCCCCn1nc(C(=O)N2CCN(c3ccc(F)cc3)CC2)c2ccccc2c1=O	98%[activator]	-17%
COc1ccc(Cl)c(Cn2c(NC3CCCCC3)nc3c2c(=O)n(C)c(=O)n3C)c1	-8%	-8%
CCN(c1ccccc1)S(=O)(=O)c1ccc(-c2cc(C)no2)s1	63%[activator]	18%
CC(C)c1ccc(NC(C)(C)c2nnnn2-c2ccc(Cl)cc2)cc1	67%[activator]	-1%
COc1ccc(C2c3ccc(O)cc3Oc3ncn4nc(-c5ccccc5Cl)nc4c32)cc1OC (stereo not given)	-13%	-17%
Cc1ccc2oc(C(=O)N(Cc3ccc(F)cc3)C3CCS(=O)(=O)C3)cc(=O)c2c1 (stereo not given)	1%	0%
COc1ccc(NC(=O)c2oc3ccccc3c2NC(=O)c2cc(C)cc(C)c2)c(OC)c1	-8%	-18%
CCOC(=O)Cn1c(=O)oc2cc(S(=O)(=O)N3CCCC(C)C3)ccc21 (stereo not given)	-9%	-1%
CC(C)NC(=O)C1CCN(C(=O)c2ccc3ccccc3n2)CC1	0%	2%
CCOc1ccc(/C=C/c2nc(C#N)c(NCc3ccco3)o2)cc1	?	?
COc1cccc2c1cc1c(=O)n(CC(=O)NCc3ccco3)nc(C)n12	-17%	29%
COc1ccc(C)cc1-n1nnc(C(=O)Nc2cccc(SC)c2)c1C	11%	14%
CCC(C)NC(=O)CSc1nnc(-c2ccncc2)n1CC(F)(F)F (stereo not given)	-9%	6%
CCN(CCCNC(=O)CN1N=C(c2ccccc2)CCC1=O)c1ccccc1	3%	-21%
O=C(CCCc1c[nH]c2ccccc12)Nc1cccc2cnccc12	11µM*	?

Quoted at random: three records from the list, in no set order.
SMILES	2A Renilla	2A firefly
CC(C)NC(=O)C1CCN(C(=O)c2ccc3ccccc3n2)CC1	0%	2%
COc1cccc2c1cc1c(=O)n(CC(=O)NCc3ccco3)nc(C)n12	-17%	29%
CCC(C)NC(=O)CSc1nnc(-c2ccncc2)n1CC(F)(F)F (stereo not given)	-9%	6%

The listing continues:
SMILES	2A Renilla	2A firefly
O=C(Cn1ncc2c3ccccc3n(Cc3cccc(Cl)c3)c2c1=O)NCCCN1CCCCC1	-1%	-7%
CCOCCOC(C)C(=O)NCC(CC)c1ccccc1 (stereo not given)	12%	119%[activator]
Nc1ccccc1C(=O)NCCNC(=O)c1cnccn1	?	?
CCCNc1nc(-c2ccc(S(=O)(=O)N3CCOCC3)cc2)cs1	-10%	-5%
Cc1cc(C)cc(Oc2coc3cc(O)ccc3c2=O)c1	34%[activator]	28%
COc1ccccc1CNS(=O)(=O)c1ccc2c(c1)CC(C)N2C(C)=O (stereo not given)	36%[activator]	-26%
CCN(CC#CC(O)(c1ccccc1)C1CCCC1)C(C)C (stereo not given)	-5%	-14%
CCC(=O)N1CCc2cc(Br)cc(S(=O)(=O)N3CCC(C(=O)Nc4cccc(C)c4)CC3)c21	-2%	1%
CC(C)c1ccc(NS(=O)(=O)c2ccc3[nH]cc(C(=O)N4CCCC4)c(=O)c3c2)cc1	33%[activator]	0%
O=C(NCCN1CCCCCC1)c1ccc(CN2CC(=O)N3CCCCC3C2=O)cc1 (stereo not given)	-17%	-11%
COc1cccc(Nc2nc(-c3ccc(S(=O)(=O)N4CCOCC4)cc3)cs2)c1	-1%	5%
CSc1ccc(C)c(C(=O)Nc2ccc(C)cc2C)c1	-1%	0%
Cc1cc(C)c(NC(=O)CSc2nc(CN(C)C)nc3ccccc23)c(C)c1	1%	1%
Cc1cc(SCC(=O)NC2CCCCC2)nc2ccccc12	42%[activator]	-3%
CC(Oc1ccccc1F)C(=O)Nc1ccc(-c2nc3ccccc3s2)cc1 (stereo not given)	3%	208%[activator]
Cc1ccc(C(CC(=O)Nc2ccc(F)c(Cl)c2)N2Cc3ccccc3C2=O)cc1 (stereo not given)	-6%	-16%
COc1cccc(CNC(=O)c2cc(=O)[nH]c3ccc(S(=O)(=O)N4CCCCC4)cc23)c1	-10%	-22%
COc1ccc(CNC(=O)CCS(=O)(=O)c2cc(Br)cc3c2N(C(=O)C2CC2)CC3)cc1	64%[activator]	-9%

A few values from the results shown.
Under 2A Renilla, `COc1cccc(CNC(=O)c2cc(=O)[nH]c3ccc(S(=O)(=O)N4CCCCC4)cc23)c1` reads -10%
Under 2A Renilla, `CC(Oc1ccccc1F)C(=O)Nc1ccc(-c2nc3ccccc3s2)cc1` (stereo not given) reads 3%
